Bioassay records deposited in PubChem by several laboratories.
Mtb hypoxia inh – reduces hypoxia-regulated biosensor signal in M. tuberculosis. M. tuberculosis hypoxia-regulated fluorescent reporter, fluorescence. fluorescence inhibition, % (concentration not given with the values). actives 0.1% (n = 300,000). AID 1159583;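 active means 35 to 45% if threefold the growth effect, above 45% if 1.5-fold the growth effect; inactive means the rest, general growth blockers included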;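 further: wells of about 50 µL received 100 nL stock; 0% = vehicle wells and 100% = reference inhibitor wells; whole bacteria with a GFP reporter of the hypoxia response; strong numbers were not always called active; many hits fall short of the cut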
PrP 5UTR inh – inhibition of PrP 5' UTR reporter expression; actives 0.35% (n = 340,000); AID 488862; cell-based PrP 5' UTR mRNA reporter, plate reader; inhibition, % (test concentration not listed);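 active means every replicate at 50% or more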;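 further: 0 = median of the neutral control wells; tested in H4 reporter cells; numbers are from one replicate; inactives centre near -14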
Bead autofluor – compound fluorescence in toxin protease inhibitor counterscreen; actives 3.1% (n = 360,000); AID 624483; compound autofluorescence counterscreen, microsphere flow cytometry; active compounds read high; fluorescence intensity (no concentration beside the values);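 active means at least 3 SD above the mean of all compounds, about 16000 in these data; inconclusive means too few beads counted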;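 further: 100 nL of 1 mM stock went into each well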
ugtP null kill – compounds lethal to S. aureus RN4220 ugtP deletion mutant; OD600 growth, 16 h; some inactives read as strong as hits; growth inhibition, % (test concentration not listed); actives 0.54% (n = 330,000);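 active means z-score under -3 and OD600 up to 0.15 on both plates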;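 further: plate controls were untreated wells for no effect and antibiotic for full effect; wells of about 80 µL received 100 nL stock; the first replicate is given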
BJeLR viability – kills HRASV12-expressing BJeLR cells; BJeLR (HRASV12) viability, CellTiter-Glo ATP luminescence, 48 h; reference of the scale not given here; inhibition, % (concentration not given with the values); actives 0.17% (n = 300,000);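 active means replicate mean above 50%; inconclusive means above 50% but judged a plate artefact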;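 further: 50 nL library stock added to about 25 µL; numbers are from one replicate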
RN4220 kill – kills Staphylococcus aureus RN4220; S. aureus RN4220 growth, OD600, 16 h; inhibition, % (no concentration beside the values); actives 0.33% (n = 330,000); AID 1259311;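 active means z-score of -3 or lower and OD600 up to 0.18 on both plates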;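 further: plate controls were untreated cells for no effect and reference antibiotic for full effect; stock transfer was 100 nL into about 80 µL; one replicate is shown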
Mtb hypoxia inh growth – recorded beside Mtb hypoxia inh, whose call it bears; growth inhibition, %; measured here: M. tuberculosis growth (absorbance);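 0% = vehicle and 100% = reference antibiotic; read after six days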
Active calls of the source: *; ? = inconclusive; . = no result given.

SMILES | Mtb hypoxia inh | Mtb hypoxia inh growth | PrP 5UTR inh | Bead autofluor | ugtP null kill | BJeLR viability | RN4220 kill
CC1=Nc2cc(C(=O)NCC3CCCO3)ccc2Sc2ccc(C)cc21 (centres undefined) | 1.2 | 3.9 | -34.6 | 5401 | -1.0 | 26.6 | 2.3
Cc1cccc(C(=O)NCc2nnc(SCC(=O)NC3=NCCS3)n2C)c1 | -7.4 | -3.7 | -13.1 | 3746 | 3.5 | 6.6 | 1.3
FC(F)(F)COc1nc(OCC(F)(F)F)nc(N2CCN(c3ccccc3)CC2)n1 | . | . | -13.3 | 3961 | -0.6 | . | -3.2
COc1cccc(C2/C(=C(/O)c3ccc4c(c3)CC(C)O4)C(=O)C(=O)N2c2nnc(C)s2)c1 (centres undefined) | 10.9 | 7.6 | -12.4 | 5544 | 0.3 | -0.2 | 2.2
Cc1cc(NC(=O)c2ccc3c(c2)C(=O)N(C(C)(C)C)C3=O)no1 | -8.0 | 11.3 | -26.5 | 4483 | 1.2 | 4.8 | 2.7
CN(Cc1ccccc1)C(=O)c1[nH]cnc1C(=O)N[C@@H](CCCCNC(=O)OC(C)(C)C)C(=O)OC(C)(C)C | . | . | 0.9 | 3932 | . | 3.2 | .
CCCCC(=O)Nc1cccc(C(=O)N/N=C/c2ccc(OC)cc2OC)c1 | . | . | -0.4 | 2721 | . | -3.2 | .
Cc1cccc(OCc2nc(C#N)c(NCCN(C)C)o2)c1 | 9.6 | 9.9 | 4.9 | 4938 | 6.7 | 3.7 | 4.4
Cc1ccc(SCC(=O)Nc2cc(C)on2)cc1 | 16.6 | 5.1 | -52.0 | 10411 | -3.9 | -0.4 | 4.2
Nc1cc(-c2nn[nH]n2)ccc1F | . | . | -2.0 | 2132 | -5.2 | 2.1 | 0.7
O=C1CCc2cc(S(=O)(=O)NCCC(=O)N3CCN(c4cccc(Cl)c4)CC3)ccc2N1 | -1.6 | 8.6 | -8.1 | ? | -1.9 | . | -1.4
C=Cc1ccc(Cn2nc(-c3ccccc3)ccc2=O)cc1 | -2.7 | 6.6 | 7.8 | 3890 | 8.6 | -4.9 | 2.9
Cc1nc2ccc(NC(=O)[C@@H](NC(=O)c3c(F)cccc3F)C(C)C)cc2s1 | -1.2 | 1.5 | -15.5 | 8879 | 1.9 | . | -1.1
CC(=O)Nc1ccc(S(=O)(=O)N2CCN(CC(=O)N3CCOCC3)CC2)cc1 | 3.7 | -5.0 | 2.2 | 6049 | -5.5 | 5.1 | 0.8
COc1ccc(OC2C=CC(c3ccccc3)OC2COC(=O)CCC(C)=NOC(C)c2cc(-c3c(C)cc(C)cc3C)no2)cc1 (centres undefined) | 2.6 | 3.5 | . | . | 0.5 | . | 3.4
CN(C)S(=O)(=O)c1cccc(NC(=S)N2CCCCC2CO)c1 (centres undefined) | 0.7 | 3.1 | -22.5 | 2623 | -1.6 | -3.8 | 6.3
CCOC(=O)C(=NNc1ccccc1)c1csc(Nc2ccc(C)cc2)n1 | 0.4 | -1.1 | . | . | -18.4 | . | 1.5
COc1ccc(C(=O)Nc2ccc3nc(N4CCCCC4)cc(C)c3c2)c(OC)c1 | 2.4 | 0.1 | . | . | -4.0 | 2.0 | 1.6
COc1cc(-c2nc3cnccn3c2Nc2ccc(C)cc2)ccc1O | 16.3 | 7.0 | -23.1 | 10848 | -1.5 | 4.9 | 6.7
CCC(=O)N1CCN(c2nnc(-c3ccccc3)c3ccccc23)CC1 | 7.5 | 9.0 | -4.8 | 3460 | 13.0 | 4.1 | 3.8
O=C(CN1CCC(NC(=O)c2ccc(Br)cc2)CC1)NCc1cccs1 | -10.0 | 0.9 | -19.4 | 2113 | -6.6 | -0.8 | -6.5
COc1ccccc1NC(=O)C(=O)NN=C(C)CC(=O)Nc1ccccn1 | 3.7 | 0.4 | . | . | -0.6 | . | 1.5
CCOC(=O)C1CCN(S(=O)(=O)c2cn(C)cn2)CC1 | 10.7 | -2.9 | -3.1 | 4750 | 0.3 | 11.1 | 2.1
Cn1c(NN=C2CCCc3ccccc32)nc2c1c(=O)n(Cc1ccc(F)cc1)c(=O)n2C | -10.8 | -5.5 | . | . | -1.7 | . | 2.7
O=C(O)c1ccccc1SC1CC(=O)N(c2ccc3c(c2)OCO3)C1=O (centres undefined) | 2.1 | 1.7 | -13.5 | 5265 | 4.0 | -6.8 | 14.1
Cc1ccc(S(=O)(=O)N2C=CC(C(F)(F)F)=NCC2)cc1 | 1.7 | -8.0 | -2.4 | 3536 | 3.1 | -1.5 | 5.8
O=C(/C=C/c1ccccc1)c1ccc2c(c1)OCO2 | . | . | -50.0 | 2957 | -2.6 | -7.9 | 8.9
Cc1cc(NC(=O)CSCC(=O)OCC(=O)Nc2ccc(OC(F)F)cc2)no1 | 11.2 | 0.2 | -10.3 | 3799 | 7.2 | . | 4.8
CSc1ncccc1C(=O)N1CCCC(C(=O)c2ccc3ccccc3c2)C1 (centres undefined) | 2.7 | -2.2 | -5.1 | 4328 | 7.8 | 3.6 | 1.3
COc1cccc(C=NNC(=S)Nc2cccc(C(=O)O)c2)c1O | 13.4 | 4.1 | . | . | -11.9 | . | 2.0
CCC(C)c1ccccc1NC(=O)C(C)Sc1n[nH]c(N)n1 (centres undefined) | -13.3 | 4.4 | -2.7 | 8659 | 0.5 | . | -0.1
CCOc1cc(S(=O)(=O)NC2CCCCC2)ccc1F | 15.6 | 6.8 | -33.8 | 22695* | -3.1 | -9.5 | 6.3
O=C(NCCCN1CCOCC1)c1ccc(NC(=O)C2COc3ccccc3O2)cc1 (centres undefined) | 10.9 | 6.9 | -17.4 | 2416 | 5.8 | 11.9 | 7.0
CC(=O)C1=C(c2ccccc2)NC(=O)NC1c1cccs1 (centres undefined) | 5.5 | -2.5 | -24.7 | 4057 | 9.2 | 11.9 | 1.6
CCn1c(SCC(=O)NC2CCS(=O)(=O)C2)nnc1-c1ccccc1 (centres undefined) | 5.2 | -0.3 | -24.6 | 3711 | 0.4 | 5.1 | 5.3
Cn1cccc1C(=O)NC(=O)COC(=O)CNS(=O)(=O)c1ccc(Br)cc1 | 4.3 | 1.4 | -22.6 | 2487 | 5.1 | 0.1 | -7.5
Cc1ccc(NC(=O)CN(C)C(=O)c2cc(C)on2)cc1 | 8.1 | 9.0 | -9.1 | ? | 4.0 | . | 5.0
COC(=O)C1=C(Nc2ccc(C)cc2)C=C(C)C(C(=O)OC)C1c1ccc(F)cc1 (centres undefined) | 10.6 | 10.7 | -15.1 | 9726 | 0.4 | -4.9 | -9.9
COc1ccc(C(=O)NC(=S)Nc2ccc(S(=O)(=O)Nc3cc(C)on3)cc2)cc1OC | 19.1 | 27.8 | -8.3 | 5271 | 4.1 | -5.8 | 6.2
O=C(COC(=O)c1cccc(F)c1)Nc1ccc2c(c1)OCCO2 | 2.8 | -6.0 | -34.8 | 2871 | 0.1 | . | 0.4
CC(C)(C)Oc1ccccc1Nc1nc(NCCO)nc(N2CCCC2)n1 | 8.1 | 7.2 | -5.7 | 3934 | 0.6 | -7.3 | 5.3
O=C(C1CCCN(S(=O)(=O)c2ccccc2[N+](=O)[O-])C1)N1CCN(c2ccccc2)CC1 (centres undefined) | 5.4 | 2.6 | -26.2 | 2621 | 7.5 | 0.3 | 9.0
CCC1(C)Cc2c(sc3nc(SCC(=O)O)[nH]c(=O)c23)CO1 (centres undefined) | -3.3 | 2.4 | -5.7 | 10270 | -2.5 | 4.7 | -0.8
O=c1c2ccccc2c(/C=N/c2n[nH]c(CCCO)n2)c(O)n1-c1ccccc1Cl | 2.0 | 3.7 | -73.4 | 3233 | -0.1 | 5.6 | 14.0
CN(c1ccccc1)S(=O)(=O)c1ccc(C(=O)N2CCN(c3ccccc3F)CC2)cc1 | -3.5 | 4.4 | -10.1 | . | 0.9 | . | 6.9
COc1ccc(CNS(=O)(=O)c2cc(-c3cc(C)no3)ccc2C)cc1OC | 7.7 | 3.8 | -22.1 | 4382 | 10.1 | 2.6 | 2.8
COc1cc(/C=C/c2ccc3cccc(O)c3n2)cc(Br)c1OC | 8.9 | 2.7 | -24.2 | 4070 | 9.0 | 47.8 | 6.2
COCc1nnc(NS(=O)(=O)c2ccc(NC(C)=O)cc2)s1 | 10.5 | 18.1 | -12.7 | 4685 | 0.7 | -5.8 | 2.0

In a second layout: results already given
The line under a structure holds: Mtb hypoxia inh	Mtb hypoxia inh growth	PrP 5UTR inh	Bead autofluor	ugtP null kill	BJeLR viability	RN4220 kill
> COc1ccc(C(=O)NC(=S)Nc2ccc(S(=O)(=O)Nc3cc(C)on3)cc2)cc1OC
  19.1	27.8	-8.3	5271	4.1	-5.8	6.2
> O=C(COC(=O)c1cccc(F)c1)Nc1ccc2c(c1)OCCO2
  2.8	-6.0	-34.8	2871	0.1	.	0.4

Additional records
SMILES | Mtb hypoxia inh | Mtb hypoxia inh growth | PrP 5UTR inh | Bead autofluor | ugtP null kill | BJeLR viability | RN4220 kill
O=C1NC(c2cccnc2)Nc2sc3c(c21)CCCC3 (centres undefined) | 11.3 | 19.1 | -19.1 | 10852 | 0.4 | -11.0 | 6.9
COc1ccc(N2CCN(C(=O)COC(=O)COc3ccc(C#N)cc3)CC2)cc1 | 1.9 | -2.0 | -59.2 | 5187 | 10.1 | -1.1 | 3.0
CCCn1nc(C(=O)Nc2ccc3nc(C)sc3c2)c2ccccc2c1=O | 5.9 | -5.1 | -19.0 | 3123 | 3.1 | -7.2 | 12.5
CN(CC(=O)Nc1ccc(Cl)c(C(F)(F)F)c1)C(=O)CCc1nc2ccccc2c(=O)[nH]1 | -9.3 | -4.1 | -2.4 | 8520 | -8.5 | . | 1.8
C[C@@H]1CN([C@H](C)CO)C(=O)c2cc(NC(=O)C3CCCCC3)ccc2O[C@@H]1CN(C)Cc1ccncc1 | 5.0 | 8.9 | -19.7 | 3908 | -7.8 | . | -12.0
CC(C)OCCCNC(=O)[C@H]1N2C(=O)c3ccccc3C2SC1(C)C (some centres undefined) | 11.0 | 0.4 | -26.1 | 3116 | 6.0 | -2.2 | 5.2
Cc1ccccc1OC(C)C(=O)Nc1ccc(S(=O)(=O)Nc2nccs2)cc1 (centres undefined) | 1.7 | 18.1 | -9.5 | 3867 | -3.4 | 5.3 | 5.2
Cc1ccccc1NC(=O)C1CCCN1S(=O)(=O)c1cccc2cccnc12 (centres undefined) | . | . | -10.2 | 3983 | 4.6 | 0.6 | 0.7
CN1CCC(=NOc2ccc([N+](=O)[O-])cc2)CC1 | -1.3 | -6.6 | -30.5 | 1998 | -4.4 | 3.3 | 2.8
COc1cccc(N2CCN(c3cnc4ccccc4n3)CC2)c1 | 0.2 | 20.3 | -77.0 | 4326 | -5.4 | 0.1 | 4.8
Cn1c(N)c(C(=O)COC(=O)c2ccc(Br)o2)c(=O)n(C)c1=O | 3.8 | -4.5 | -2.1 | 3144 | -0.3 | 7.3 | 6.0
CCOCCCn1c(SCC(=O)Nc2ccccc2OC)nc2ccccc2c1=O | 19.8 | 4.7 | -22.4 | 3282 | 5.9 | -6.8 | 2.9
Cc1cccc(NC(=S)NC2CCCCC2)n1 | -5.9 | -7.4 | -30.3 | 2119 | 6.5 | -10.2 | 3.9
O=C(O)C1CCN(C(=O)OCc2ccccc2)CC1 | 8.8 | 4.0 | -69.9 | 8286 | -1.7 | -5.2 | -1.7
CC(=Nn1c(C)nc2ccccc2c1=O)c1ccc(C)o1 | 17.4 | -3.0 | . | . | 2.0 | . | 0.6
CCc1nc(C)cn1S(=O)(=O)c1ccc(Cl)c(Cl)c1Cl | 3.9 | 3.4 | 17.4 | 6889 | -7.1 | 2.8 | 2.5
CN(C)/N=C/C=C1\CC/C(=C\c2ccc(F)c(F)c2)C1=O | . | . | -39.5 | 5324 | . | -2.2 | .
Cc1ccc(-c2ccc(/C=N/N3C(=O)C4C5C=CC(CC5)C4C3=O)o2)c([N+](=O)[O-])c1 (centres undefined) | . | . | -59.2 | 7824 | . | 0.0 | .
O=C(c1cnn2c(C(F)(F)F)cc(-c3ccccc3)nc12)N1CCOCC1 | 10.9 | 8.4 | -92.0 | 7783 | 8.2 | 2.9 | 2.8

This is a random part of the collection. About 4% of those tested had a hit in this group.
